# H5N1 antiviral: antiviral screen in MDCK cells, H5N1 avian flu; cytopathic effect, luminescence, 72 h; hits give high values; no value below 0 was filed and about half of the inactive calls have no number; reference of the scale not given here; inhibition, % at 50 µM; 96,000 compounds, 0.07% hits; AID 740; in the data active means inhibition above about 25%
# * hit, by the source's call; i = inactive. Some of the compounds tested; the hit share may differ from the screen's.
SMILES | H5N1 antiviral
C=CCn1c(SCC(=O)OCC)nc2cc(C(=O)NCc3ccco3)ccc2c1=O | i
CCOC(=O)c1oc2ccc(Br)cc2c1CSc1nnc(C)s1 | 2.0
Cn1c(SCC(=O)Nc2ccc3c(c2)OCCO3)nnc1-c1ccco1 | 0.7
CC1CCCCC1NC(=O)CSc1nncs1 (stereo unspecified) | i
CC(C)Cn1cc(C(=O)N2CCOCC2)c2c3ccccc3n(C)c2c1=O | 3.3
COc1ccc(Cc2nnc(SCC(=O)NCc3ccco3)o2)cc1 | 1.3
O=C(CSc1ncnc2c1nnn2Cc1ccccc1F)N1CCN(c2ccccc2)CC1 | 0.4
CC(=O)c1ccc(-n2nnnc2SCC(=O)N2CCN(C(=O)c3ccco3)CC2)cc1 | 0.1
CCN(CC)c1nc(-c2cccc(OC)c2O)nc2ccccc12 | 1.1
O=C(c1cc2cc(Br)ccc2oc1=O)N1CCN(c2ccccn2)CC1 | i
C=CCn1c(C)cc(C(=O)CSc2nc3ccccc3[nH]2)c1C | 7.6
COc1ccccc1Nc1nnc(SCC(=O)Nc2cc(C)on2)s1 | 0.3
Nc1nnc(CCc2ccccc2)s1 | i
CC(=NCCc1ccccc1)C1=C(O)CSC1=O | 4.3
Cc1cnc(C(=O)OCC(=O)N2c3ccccc3NC(=O)C2(C)C)cn1 | i
COc1cccc(OC)c1C(=O)N1CCN(c2c(Cc3ccccc3)c(C)nc3ncnn23)CC1 | 0.8
Cc1ccc(-c2cc(C(=O)N/N=C/c3c(C)nn(C)c3C)c3ccccc3n2)c(C)c1 | i
Cc1cc(C)n(-c2nc(Nc3ccccc3C)nc(-n3nc(C)cc3C)n2)n1 | i
O=C(O)c1ccc(CN2CCCCC2)o1 | i
OC1(c2ccccc2F)CCN(Cc2nnnn2CCc2ccccc2)CC1 | 0.7
Cc1cc(C)nc(SCC(=O)Oc2ccc3oc(=O)cc(C)c3c2)n1 | 1.1
O=C1CC(N(Cc2ccc3c(c2)OCO3)C(=O)Nc2ccc(F)cc2)C(=O)N1c1ccccc1 (stereo unspecified) | i
C=CCN(c1ccc(C(=O)NC(C)C)cc1)S(C)(=O)=O | 0.1
Cc1cccc(NC(=O)C2CC(=O)N(c3ccccc3)C2)c1C (stereo unspecified) | 0.5
Cc1cc(C)c2c(CN3CCN(Cc4ccc5c(c4)OCO5)CC3)cc(=O)oc2c1C | 2.8
CSc1nc(C)cc(OCNC(=O)c2cccs2)n1 | i
COc1ccc(N=CC2=C(O)c3ccccc3C2=O)cc1 | i
CCCCCNC(=O)CSC1=N/C(=C\c2ccc(Cl)c(Cl)c2)C(=O)N1CC | i
Cc1ccc(Cn2c(SCCN3CCOCC3)nc3c2c(=O)n(C)c(=O)n3C)cc1 | 1.3
Cc1cc(C)nc(/N=C(/NC(=O)Nc2cccc(Cl)c2)Nc2ccccc2)n1 | 1.5
CN(C)CCn1c(C(=O)Nc2ccccc2)cc2ccccc21 | i
Cc1ccc(S(=O)(=O)N2CCN(C(=O)CN3C(=O)NC4(CCOc5ccccc54)C3=O)CC2)cc1 (stereo unspecified) | 0.7
COc1ccc(-c2cc3nc(C)c(CCC(=O)NC(C)CCc4ccco4)c(C)n3n2)c(OC)c1 (stereo unspecified) | i
CCc1ccc(N(CC(=O)NC)S(C)(=O)=O)cc1 | i
O=C(CCCc1c[nH]c2ccccc12)N1CCN(S(=O)(=O)c2cccs2)CC1 | 2.9
CCN(CC)S(=O)(=O)c1ccc(N2CCOCC2)c(C(=O)O)c1 | 0.1
O=C(CN1CCN(S(=O)(=O)c2ccc(F)cc2)CC1)Nc1ccc2c(c1)OCO2 | 2.6
CCOC(=O)c1cc(-c2ccccc2)n(CC(=O)O)c1C | 0.5
O=C(CN1CCCCC1)Nc1ccc(NC(=O)c2ccc(Cl)cc2)cc1Cl | i
CCOc1ccc(Cc2nnc(SCC(=O)c3ccc(OC)cc3)o2)cc1 | 0.3
Cc1ccccc1N1CCN(C(=O)c2ccccc2NC(=O)C2CC=CCC2C(=O)O)CC1 (stereo unspecified) | 0.5
Cc1noc(NS(=O)(=O)c2ccc(NC(=O)CCn3c(=O)oc4ccccc43)cc2)c1C | i
Cn1c(=O)c2cc(NCc3ccccc3)nnc2n(C)c1=O | 0.3
Cc1c(C(N)=O)sc2ncn(CC(=O)N3CCC(C)CC3)c(=O)c12 | 0.8
Cc1c(C(=O)O)nnn1-c1ccccc1 | i
O=C(NNC(=O)C1CCCO1)c1ccccc1Cl (stereo unspecified) | i
CC1CN(C2CCN(C(=O)c3ccccc3)CC2)CC(C)O1 (stereo unspecified) | 0.1
O=C(Nc1c(C(=O)Nc2ccc3c(c2)OCCO3)cnn1-c1ccccc1Cl)c1ccco1 | 0.9
COc1ccc(C(CC(=O)O)NC(=O)c2ccco2)cc1OC (stereo unspecified) | 0.2
O=C(COc1ccccc1)Nc1ncc2c(n1)CCCC2=O | 1.0
COc1cc(/C=C/c2cc(OC(C)=O)c3ccccc3n2)c(OC(C)=O)c([N+](=O)[O-])c1 | i
Cc1cccc(C)c1NC(=O)c1ccc(-n2cncn2)nc1 | i
CC1CN(C(c2ccco2)c2sc3ncnn3c2O)CC(C)O1 (stereo unspecified) | 0.7
CC(Oc1ccccc1)C(=O)NCc1cccnc1 (stereo unspecified) | 1.5
N#Cc1nc(COc2ccc(F)cc2)oc1N1CCCC1 | i
COC(=O)c1cc2oc(C)cc2n1CC(=O)N(C)c1ccccc1 | 1.2
Cc1ccc(N(C(=O)CCC(=O)Nc2cc(C)on2)C(C(=O)NC2CCCC2)c2ccncc2)cc1 (stereo unspecified) | i
COc1ccc(C2=C(C#N)C(=O)OC2)cc1 | 1.3
COc1ccc(Cc2nc(-c3ccc(Br)o3)no2)cc1OC | i
COc1cc(/C=N/NC(=O)c2cc(-c3cccn3C)n[nH]2)cc(OC)c1OC | i

# Next results follow.
SMILES | H5N1 antiviral
O=c1c2[nH]c3ccc(Cl)cc3c2ncn1CCN1CCCCC1 | i
Cn1c(SCC(=O)Nc2ccccc2F)nnc1-c1cccnc1 | 0.3
COc1cccc(C2c3c(oc4ccc(F)cc4c3=O)C(=O)N2CCN2CCOCC2)c1OC (stereo unspecified) | 0.3
Fc1ccccc1N1CCN(c2nc3ccccc3n3nnnc23)CC1 | 2.1
O=C(NNC(=O)c1cccs1)Nc1cccc(Cl)c1 | 2.9
O=C(O)c1cc(NCc2cccs2)ccc1N1CCOCC1 | 0.1
CCC1Sc2ccccc2N(CC(=O)NCCC(C)C)C1=O (stereo unspecified) | 0.8
CCn1c(=O)cc(SCC(=O)NCCN2CCN(Cc3ccccc3)CC2)c2ccccc21 | i
CC12CCC(C(=O)Nc3ccccc3N3CCOCC3)(CC1=O)C2(C)C (stereo unspecified) | 2.0
COc1ccccc1NC(=O)CSc1nnc(C2CCCCC2)n1C | i
COc1cc(C(=O)NCc2ccco2)c(Br)c(OC)c1OC | 2.8
CCNc1nc(NCC)nc(Oc2ccc(N)cc2)n1 | i
NC(=O)CSc1nnc(Cc2csc(Nc3ccccc3)n2)n1Cc1ccccc1 | 0.5
COCCN1CSC(=S)N(Cc2ccco2)C1 | 0.5
N#Cc1cc2c(nc1SCc1cccnc1)CCCC2 | i
O=C(/C=C/c1ccccc1)c1ccccn1 | 0.5
CCc1ccccc1NC(=O)NC1CCCCC1 | i
O=C(N1CCOCC1)N1CCN(S(=O)(=O)N2CCOCC2)CC1 | 0.4
COCC(=O)N1CCCc2ccccc21 | 0.4
CCCC(=O)Nc1ccc(NC(=O)c2ccco2)cn1 | i
O=C1CSC(c2cn(-c3ccccc3)nc2-c2cc3ccccc3o2)N1Cc1ccccc1 (stereo unspecified) | 1.7
CCOc1ccc(C2CC(c3ccc(OC)cc3)n3ncnc3N2)cc1 (stereo unspecified) | i
CC(C)n1c2ccccc2c2nc3ccccc3nc21 | i
Cn1c(C(=O)N2CCN(c3nc4ccccc4s3)CC2)cc2sccc21 | i
CCN1C(=O)C(NC(C)=O)c2cc(OC)ccc21 (stereo unspecified) | i
CCOc1ccc(NC(=O)CN2CCN(S(=O)(=O)c3ccc(Cl)cc3)CC2)cc1 | 3.4
O=C1N/C(=N/NC(=O)c2cccc3ccccc23)S/C1=C\c1ccccc1OCc1ccccc1 | 0.3
CC1CN(S(=O)(=O)c2cccc(C(=O)OCc3cc(=O)oc4cc(O)ccc34)c2)CC(C)O1 (stereo unspecified) | 1.5
CCOC(=O)c1[nH]cnc1C(=O)O | 0.8
COCCNC(=O)c1cn(C)c(=O)c2cc(OC)c(OC)cc12 | 0.5

# Continued:
compound | H5N1 antiviral
CCn1c(=O)n(CCOC)c(=O)c2c3c(sc21)CCCC3 | 0.1
Cc1cccc(CC2CC(=O)N(c3ncccn3)C2=O)c1 (stereo unspecified) | i
O=C(Oc1ccc(Cl)cc1)N1CCCCC1 | i
COc1cccc(C(=O)OCCN(C)C(C)(C)C)c1 | i
Clc1ccc(-c2nnc(-c3ccccc3)nc2N2CCSCC2)cc1 | 6.7
Nc1cc(=O)[nH]c(SCC(=O)N2CCc3ccccc3C2)n1 | i
CCOC(=O)c1cc(C(=O)OCC)c2ccccn2c1=O | 1.0
COc1ccc(C2C(C(C)=O)=C(O)C(=O)N2c2nccs2)cc1 (stereo unspecified) | i
CC(C)(C)C(=O)CC1(O)C(=O)N(Cc2ccc(Cl)cc2)c2ccccc21 (stereo unspecified) | i
Cc1ccc(-c2csc3ncnc(-n4nc(C)cc4N)c23)cc1 | 0.2
CCOC(=O)C1CCN(C(=O)c2ccccc2NC(C)=O)CC1 | i
O=C(NC1CC1)c1cc(Cl)ccc1[N+](=O)[O-] | i
c1ccc(N2CCN(c3nc4cc5c(cc4s3)OCCO5)CC2)cc1 | i
O=C(CSc1nc2cc3c(cc2c(=O)n1CCC1=CCCCC1)OCO3)NCc1ccco1 | i
COc1cccc(-c2nc(-c3ccccc3)[nH]c(=O)c2C#N)c1 | 0.5
CC1C/C(=N/NC(=O)c2cccs2)CC(C)(C)C1 (stereo unspecified) | 2.2
COc1ccccc1NC(=O)c1ccc(S(=O)(=O)N2CCCC2)cc1 | i
CCc1[nH]nc2c1C(c1ccc(Br)s1)C(C#N)=C(N)O2 (stereo unspecified) | 4.2
COC(=O)c1c(C)[nH]c(C(C)=O)c1C | 0.7
COC(=O)Cn1c(CCS(=O)(=O)c2ccc(C)cc2)nc2ccccc21 | i
CSc1ccc(S(=O)(=O)NC2CCCCCC2)cc1 | 1.0
CCOC(=O)C(=CNc1cccc(C)c1C)C(=O)OCC | 1.4
Cc1ccc(-n2ncc3c(NCc4ccc5c(c4)OCO5)ncnc32)c(C)c1 | 0.1
Cc1ccc(NC(=O)c2cc(-c3cccc(O)c3)on2)cc1C | 0.7
COC(=O)Cc1cc(=O)n2[nH]cnc2n1 | i
CC1CCN(C(=O)C(Cc2ccccc2)NS(=O)(=O)c2ccc3c(c2)oc(=O)n3C)CC1 (stereo unspecified) | 2.0
CCc1nnc(NC(=O)c2ccc(-c3cccc(C(F)(F)F)c3)o2)s1 | 0.6
Cn1cnnc1SCC(=O)Nc1ccc(Br)cc1F | 0.2
O=c1[nH]c2ccccc2cc1-c1noc(-c2cccnc2)n1 | 1.4
O=C(CCc1nc2ccccc2c(=O)[nH]1)OCc1nnc(-c2ccccc2)o1 | 2.1
CC1(C)N([O-])C(c2ccccc2)=C[N+](=O)C1(C)C | i
COc1cc(OC)c(NC(=O)Cn2cccc2)cc1Cl | i
Cc1ccc(CS(=O)(=O)Cc2ccc(C(=O)N3CCC4(CC3)OCCO4)o2)cc1 | 1.5
COc1cc2c(cc1OC)C1(NCC2)C(=O)Nc2ccccc21 (stereo unspecified) | 1.5
Nn1c(SCC(=O)Nc2ccc(F)c(F)c2)nnc1C1CCCCC1 | 0.4
Cc1ccc(S(=O)(=O)NCc2nc3ccccc3[nH]2)cc1 | 1.8
Cc1sc2ncnc(NCCCO)c2c1C | 1.6
O=C(O)C1CCCCC1C(=O)Nc1cccc(Cl)c1Cl (stereo unspecified) | i
Clc1ccc(-c2ccc(SCc3ccccn3)nn2)cc1 | i
CCN1CCN(S(=O)(=O)c2ccc3ccccc3c2)CC1 | 0.7
Cc1csc(NC(=O)CSc2nnc(CCNC(=O)c3ccc(Cl)c(Cl)c3)n2C)n1 | i
Cc1ccc(-n2nc(C)c3c(C)c(CCC(=O)NCc4ccco4)c(C)nc32)cc1 | 0.8
O=C(NCc1ccc2c(c1)OCO2)C1CCC(CNc2c(N3CCCC3)c(=O)c2=O)CC1 (stereo unspecified) | 0.7
Cc1ccc(-n2nc(C)c3c2OC(N)=C(C#N)C3c2ccncc2)cc1 (stereo unspecified) | i
O=C(CSc1nc2ccc(Cl)cc2[nH]1)c1ccc2c(c1)OCO2 | i
Cc1nnc(C)n1/N=C/c1ccc2c(c1)OCCO2 | i
CCOC(=O)C1CCN(S(=O)(=O)c2ccc3c(c2)CCCN3C(C)=O)CC1 | i
Cc1noc(N)c1C(=O)Nc1ccccc1F | 0.2
O/N=C/c1c[nH]c2ccccc12 | 0.5
CCC(=O)NCc1c(Cl)cccc1-n1cccc1 | i

# In the list so far, these contain an NH in an aromatic ring.
compound | H5N1 antiviral
C=CCn1c(C)cc(C(=O)CSc2nc3ccccc3[nH]2)c1C | 7.6
O=C(CCCc1c[nH]c2ccccc12)N1CCN(S(=O)(=O)c2cccs2)CC1 | 2.9
COc1cc(/C=N/NC(=O)c2cc(-c3cccn3C)n[nH]2)cc(OC)c1OC | i
O=c1c2[nH]c3ccc(Cl)cc3c2ncn1CCN1CCCCC1 | i
CCOC(=O)c1[nH]cnc1C(=O)O | 0.8
Nc1cc(=O)[nH]c(SCC(=O)N2CCc3ccccc3C2)n1 | i
COc1cccc(-c2nc(-c3ccccc3)[nH]c(=O)c2C#N)c1 | 0.5
CCc1[nH]nc2c1C(c1ccc(Br)s1)C(C#N)=C(N)O2 (stereo unspecified) | 4.2
COC(=O)c1c(C)[nH]c(C(C)=O)c1C | 0.7
COC(=O)Cc1cc(=O)n2[nH]cnc2n1 | i
O=c1[nH]c2ccccc2cc1-c1noc(-c2cccnc2)n1 | 1.4
O=C(CCc1nc2ccccc2c(=O)[nH]1)OCc1nnc(-c2ccccc2)o1 | 2.1
Cc1ccc(S(=O)(=O)NCc2nc3ccccc3[nH]2)cc1 | 1.8
O=C(CSc1nc2ccc(Cl)cc2[nH]1)c1ccc2c(c1)OCO2 | i
O/N=C/c1c[nH]c2ccccc12 | 0.5
